gsp antag – gsp mutant antagonism; actives 0.4% (n = 340,000); gsp-mutant cells, cAMP HTRF, 30 min; control for the full effect not named in the record; Potency, µM (doses to about 76.9 µM), for inactives: top-dose activity change, negative = inhibition, usual class: inhibitors; active = falling curve of any shape with a large fitted effect; inconclusive = falling curve, mostly with a smaller effect; inactive = flat or rising curve; cell line not stated here;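 also: intracellular cAMP measured with PDE inhibitor Ro 20-1724 present during compound exposure; potency is read from the fitted curve at half-maximal effect; % is scaled to controls: 0 for no effect and ±100 for the full control effect; nearly all actives have a fitted effect of over 65% in size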
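HTRF cAMP read-out (cAMP-d2 plus anti-cAMP antibody-K in lysis buffer, 30 min RT). Before lysis, cells are exposed to compounds with […] for 30 min at 37C in DPBS containing Ca/Mg, BSA and Tween 20.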
TRPV1 potentiator – potentiators of human vanilloid receptor 1 (TRPV1) | AID 540277 | potentiation, % at 8.33 µM | actives 0.02% (n = 320,000) | Q8NER1 | TRPV1-expressing cells, Fluo-8 calcium influx, capsaicin EC20 potentiation; host cell line not named in the record; control for the full effect not named in the record; active means potentiation above 80%; inconclusive means 30% to 80%; inactive means below 30%; also: 0% is about no effect
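TRPV1-expressing cells were cultured overnight at 35.5C and loaded with Fluo-8 calcium dye for 40 to 90 min at room temperature. After a 10 s baseline, compound was added and calcium influx was read kinetically for 3 min (ex 480/em 520 nm).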
Menin-MLL FL inh – menin-MLL binding inhibition, fluorescein peptide | Fluorescence polarization, fluorescein-MLL peptide displacement from menin | FP activity change, % at 61.4 µM | 290,000 tested, under 10 active | AID 1766; inconclusive = falling polarisation curve, or a change in total fluorescence; inactive = total fluorescence flat and polarisation flat or rising; no compound was filed as active; the % refers to the polarisation; negative = inhibition;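 also: % of control where 0% means no effect; inhibitors lower the polarisation; unlabelled MLL peptide was the positive control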
gsp agonist – gsp mutant agonism; gsp mutant cells, cAMP HTRF, 30 min; control for the full effect not named in the record; Potency, µM (titrated, usually from 76.9 µM), inactives show top-dose activation (cAMP increase), hits mostly activators; actives 0.13% (n = 340,000); AID 624287; active = well fitted activation curve with a large enough effect; inconclusive = small, poorly fitted or top-dose-only effect, or another doubt; inactive = no such curve, though single readings can be large or run the other way; cell line not stated here;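 also: phosphodiesterase inhibitor Ro 20-1724 added with compounds to block cAMP breakdown; potency is read from the fitted curve at half-maximal effect; nearly all actives have a fitted effect of over 60% in size; about a fifth of the inactives were tested at one dose only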
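Cells stably selected in G418 were plated at 2000/well, grown 16-24 hr, then given compounds in DMSO with the PDE inhibitor […] (300 uM solution added) for 30 min at 37C; cAMP was read by HTRF.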
TRPML1 inh – human mucolipin-1 channel inhibition; Q9GZU1; TRPML1-inducible cells, Ca2+ dye fluorescence, FDSS; hits give low values; inhibition of EC80 agonist-evoked calcium signal; activity change, negative = inhibition, % (concentration not given with the values); actives 0.02% (n = 390,000); AID 624415; in the data active means activity change below about -50%; inconclusive means about -30% to -50%; inactive means above about -30%;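 also: stimulus is agonist 54-4 at its EC80 concentration; % is scaled to controls: 0 for no effect and ±100 for the full control effect; compound concentration not given in the record; the text of the record puts the active cut at -80%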
Target sequence (Q9GZU1 whole entry, looked up): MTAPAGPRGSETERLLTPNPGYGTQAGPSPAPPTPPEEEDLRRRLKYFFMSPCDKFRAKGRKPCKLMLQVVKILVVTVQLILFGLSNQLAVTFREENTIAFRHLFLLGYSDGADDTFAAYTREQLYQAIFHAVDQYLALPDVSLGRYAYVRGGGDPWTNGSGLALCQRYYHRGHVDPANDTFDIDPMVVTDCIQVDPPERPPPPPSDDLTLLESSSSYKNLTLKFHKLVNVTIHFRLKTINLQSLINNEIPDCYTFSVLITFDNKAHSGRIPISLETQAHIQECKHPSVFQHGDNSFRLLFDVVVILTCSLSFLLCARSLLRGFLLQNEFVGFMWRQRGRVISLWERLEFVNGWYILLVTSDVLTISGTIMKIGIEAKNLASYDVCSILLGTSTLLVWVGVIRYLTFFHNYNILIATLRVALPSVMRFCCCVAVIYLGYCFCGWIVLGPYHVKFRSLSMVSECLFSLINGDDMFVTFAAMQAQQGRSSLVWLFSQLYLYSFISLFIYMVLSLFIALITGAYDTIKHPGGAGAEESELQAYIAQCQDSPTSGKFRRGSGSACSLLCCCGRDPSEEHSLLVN
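Tet-induced TRPML1-DL cells loaded with Ca8 no-wash calcium dye were read kinetically on FDSS. Compound addition was followed by EC80 agonist 54-4 (4 uM final); inhibition was read over 110 s.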
Sfp PPTase inh – Sfp phosphopantetheinyl transferase inhibition. Q9F4F7. Biochemical Sfp PPTase activity, qHTS. Potency, µM, for the others: max response, negative = inhibition, usual class: inhibitors. actives 3.5% (n = 310,000). AID 1490; active = well fitted inhibition curve with a large enough effect; inconclusive = small, poorly fitted or top-dose-only effect, or another doubt; inactive = no such curve, though single readings can be large or run the other way;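 also: the enzyme is Sfp with the accession as filed and its product quenches rhodamine fluorescence; potency is read from the fitted curve at half-maximal effect; 0% = enzyme reaction without inhibitor and -100% = no enzyme wells; top concentration of the series not given in the record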
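After 15 min at room temperature with compound, 15 nM Sfp received 5 uM rhodamine-CoA plus 12.5 uM BHQ-2-ybbR (50 mM Hepes pH 7.6, 10 mM MgCl2). Rate came from the fluorescence difference over 30 min, ex 525/em 598 nm.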
ClpP mod – qHTS Assay for Activators of ClpP; ATP-dependent Clp protease proteolytic subunit (Bacillus subtilis (strain 168)), P80244; actives 1.9% (n = 340,000); Potency, µM (titrated, usually from 57.5 µM), for the others: at the top dose activity change, negative = active; AID 651965, 2013; purified B. subtilis ClpP, FRET peptide cleavage, 20 min; active = well fitted falling curve with a large enough effect; inconclusive = small, poorly fitted or top-dose-only effect; inactive = no such curve, though single readings can be large or run the other way; also: potency is read from the fitted curve at half-maximal effect; the source files actives as falling curves though it sought activators and does not explain the sign; nearly all actives have a fitted effect of over 65% in size; many hits overshoot -100%
Target sequence (P80244 whole entry, looked up): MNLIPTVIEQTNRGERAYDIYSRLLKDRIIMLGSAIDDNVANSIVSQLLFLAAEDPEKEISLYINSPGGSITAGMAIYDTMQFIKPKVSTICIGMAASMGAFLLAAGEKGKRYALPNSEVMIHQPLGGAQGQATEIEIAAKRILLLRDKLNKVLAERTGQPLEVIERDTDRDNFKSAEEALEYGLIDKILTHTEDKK
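FRET quenching reversal measured ClpP activation: 10 microg/mL B. subtilis ClpP at pH 8 with the FRET-FV decapeptide, read at 430 nm after 320 nm excitation. The 20-min minus 0-min signal was scaled between DMSO/no-enzyme wells and ADEP (5.8 microM final).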
* = called active by the depositor; ? = inconclusive; · = not tested or not shown; & = joins results of further samples; [ ] = remark or other dose. Not a hit list; overall some 4.9% were active at least once.

SMILES	gsp antag	TRPV1 potentiator	Menin-MLL FL inh	gsp agonist	TRPML1 inh	Sfp PPTase inh	ClpP mod
CCOC(=O)NC(=O)/C(C#N)=C/c1ccc(N(C)C)cc1	?	-4	?	-1%[15.4 µM]	14	2%	·
CCOC(=O)CC(NC(=O)Cn1nnc(-c2ccccc2F)n1)c1ccc(OC)cc1 (configuration not stated)	-22%	15	-1.8	-1%[15.4 µM]	-7	3%	0.4%
COc1cc(C)c(S(=O)(=O)NOCc2ccccc2)c(C)c1C	-17%	16	1.6	-15%	10	7%	-5.7%
CC1CCCCC1NC(=O)Cn1nnc(-c2ccc(Cl)cc2)n1 (configuration not stated)	-1%	1	-2.2	-41%[inhibitor]	-5	-1%	-1.6%
COc1ccc(N=C2SC(CC(=O)Nc3ccccc3)C(=O)N2CCN2CCOCC2)cc1 (configuration not stated)	-5%	1	4.2	5%[15.4 µM]	-6	6%	·
CCOc1ccc(/C=C/C(=O)c2cc(Br)ccc(=O)c2O)cc1	?	?	?	-9%	32	20µM*	0.8%
COc1cc2c(=O)n(CCC(=O)NCC3CCCO3)c(=O)n(CC(=O)Nc3ccc(C)c(C)c3)c2cc1OC (configuration not stated)	-6%	-17	-1.7	7%	-3&17	7%	-26%
O=C(O)c1cc([N+](=O)[O-])cc([N+](=O)[O-])c1N1CCN(c2cccc(C(F)(F)F)c2)CC1	4%	-1	-9.9	-25%	-8	-7%	0.3%
O=C(CN1CCN(c2ccc(Cl)cc2[N+](=O)[O-])CC1)N1CCOCC1	-14%	3	0.3	-10%[15.4 µM]	-5	-10%	·
O=C(NCC1CCCN(Cc2cccc(F)c2)C1)c1cccc2ccccc12 (configuration not stated)	5%	28	2.9	20%	-4	9%	-4.3%
Cc1ccc(S(=O)(=O)N2CCCCC2)cc1NC(=O)CSCC(=O)O	·	6	-5.9	-3%[15.4 µM]	8	14%	·
O=C(O)c1cc(-c2ccccc2Cl)n(-c2cccc(Cl)c2)n1	-6%	-8	-4.6	2%	-10	16%	0.9%
COc1ccc(N2CCN(C3=CC(=O)N(c4cccc(Cl)c4)C3=O)CC2)cc1	-2%	11	2.0	31%[15.4 µM]	6	11%	-2.1%
CCOC(=O)N1CCN(C(=O)/C(=C/c2ccc(F)cc2)NC(=O)c2ccccc2)CC1	0%	14	0.9	7%	-10	6%	0.2%
COCCN1Cc2cccc(C(=O)Nc3cccnc3)c2C1=O	-7%	0	0.9	4%	-8	17%	0.3%
COC(=O)c1ccc(CN2[C@H](C(=O)OC)C[C@@]3(O)[C@H](O)[C@H](O)[C@H](O)C[C@@H]23)cc1	18%	?	2.8&2.0	-19%	2	20%&13%	2.6%
C#CCOCCOCCOCCNc1nc(N2CCOCC2)nc(N2CCN(C(=O)CCCCCCCCCCNC(=O)[C@@H]([C@H](C)CC)n3cc(CCCCCN)nn3)CC2)n1	3%	-36	·	-20%	-6	·	0.1%
CN(C)CCN=c1cc(-c2ccccc2)oc2ccc(Cl)cc12	·	-7	0.8	-4%[15.4 µM]	7	-10%	·
Cc1nn(-c2ccccc2)c2c1C(c1c(C)[nH]c(C#N)c1C)C(C#N)=C(N)O2 (configuration not stated)	3%	4	0.7	11%	26	11%	0.1%
CC(=O)N1c2ccc(S(=O)(=O)NCCC(=O)N(C)C3CCCCC3)cc2CC1C (configuration not stated)	0%	-11	1.7	-11%	?	13%	0.2%
NC(=O)CCN(C(=O)c1cccc(S(=O)(=O)N2CCc3ccccc32)c1)c1ccccc1	-23%	-5	·	-17%	-7	·	1.2%
Fc1ccc(NCc2nnc(SCc3ccccc3)o2)cc1	-3%	-10	4.1	9%[15.4 µM]	10	-6%	-0.2%
CCC1Oc2ccc(C)cc2N(Cc2cccc(C)c2)C1=O (configuration not stated)	?	-10	9.7	42%	-12	-11%	-2.0%
Cc1cc(-c2ccccc2C(=O)O)on1	14%	-8	-0.4	18%	6	-1%	0.5%

Marked active in Sfp PPTase inh, among the entries above:
compound | gsp antag | Menin-MLL FL inh | gsp agonist | TRPML1 inh | Sfp PPTase inh
CCOc1ccc(/C=C/C(=O)c2cc(Br)ccc(=O)c2O)cc1 | ? | ? | -9% | 32 | 20µM*

Next part:
SMILES	gsp antag	TRPV1 potentiator	Menin-MLL FL inh	gsp agonist	TRPML1 inh	Sfp PPTase inh	ClpP mod
CCOC(=O)CNc1nc(Cl)nc(N2CCCCC2)n1	5%	4	3.1	5%	-16	-9%	0.8%
N#CC1(NC(=O)COC(=O)c2cc([N+](=O)[O-])ccc2N2CCCC2)CCCCC1	-7%	-21	·	-46%[15.4 µM]	-13	·	·
N#Cc1cc([N+](=O)[O-])ccc1NC(=O)CSc1n[nH]c(=O)n1C1CC1	-2%	-9	·	36%	5	·	-0.3%
CC(C)CNS(=O)(=O)c1ccc(S(=O)(=O)NC2CCOC(C)(C)C2)cc1 (configuration not stated)	2%	·	·	-42%	13	·	-0.1%
O=C(CSC(=S)N1CCOCC1)Nc1ncc2c(n1)CCCC2=O	-3%	4	3.6	0%[15.4 µM]	6	?	·
Cc1noc(C)c1COc1ccc(C(=O)Nc2cccnc2)cc1	-3%	-8	-0.6	-7%[15.4 µM]	11	11%	·
CC/C(=N\NC(=O)c1ccc(N(C)C)cc1)c1ccccc1	-3%	5	-0.8	-5%[15.4 µM]	4	-29%	-0.1%
Cc1ccc(C)c(S(=O)(=O)N2CCN(C(=O)C3CC3C)CC2)c1 (configuration not stated)	4%	-9	·	-4%	7	·	-8.7%
CCc1ccc(S(=O)(=O)NCCc2csc(C)n2)s1	5%	-6	0.4	2%[15.4 µM]	0	20%	·
CC(=O)Nc1ccc(S(=O)(=O)N2CCSC2c2ccccc2)cc1 (configuration not stated)	-33%	0	1.4	1%	7	-3%	-1.3%
Cn1c(N)c(C(c2ccccc2)c2c(N)n(C)c(=O)n(C)c2=O)c(=O)n(C)c1=O	11%	-5	-2.3	7%	5	17%	1.2%
COc1ccc(N2C(=O)[C@@H]3[C@H](C2=O)[C@H](C(C)=O)N2c4ccccc4C=C[C@@H]32)cc1	6%	5	?	-3%[15.4 µM]	-8	-11%	0.4%
COc1ccc(S(=O)(=O)NCCSC(C)(C)C)c(Cl)c1Cl	-17%	-1	0.8	7%	-3	-2%	-1.0%
COC(=O)c1sc(N/N=C/c2ccc(C(C)C)cc2)nc1C	0%	-2	-4.2	5%[15.4 µM]	6	15%	·
O=C(O)/C=C/C(=O)NNC(=O)c1ccc(Br)cc1	15%	-12	-0.3	-3%	10	-11%	-11%
CC(C)C(=O)Nc1ccc(NC(=O)c2cc3ccccc3o2)cc1	-2%	-6	5.8	-28%	6	9%	3.2%
CSc1ccc(/C=C/C(=O)OCC(=O)N2CCN(c3ccccc3)CC2)cc1	9%	·	·	6%[15.4 µM]	6	·	·
Cc1ccc(C(=O)NCc2ccc(F)cc2)s1	10%	·	·	-2%[15.4 µM]	19	·	0.3%
CCc1ccc(NC(=O)C[n+]2cc(-c3ccc(C)cc3)n3c2CCC3)cc1	3%	-11	5.1	2%	15	2%	1.8%
Cc1nn(C)cc1S(=O)(=O)Nc1cccc(Cl)c1	0%	23	-5.7	-10%[15.4 µM]	3	25%	·
CCOC(=O)c1ccc(Nc2cc(C)nc3nc(C)nn23)cc1	-19%	5	1.0	19%	-4	4%	-3.8%
CC1CC(C)CN(C(C)C(=O)Nc2cc(S(=O)(=O)N3CCCCC3)ccc2Cl)C1 (configuration not stated)	11%	·	·	-6%	52	·	·
COc1cccc(-c2noc(-c3ccoc3C)n2)c1	-29%	2	-4.5	2%[15.4 µM]	-9	-5%	·
COc1ccc(-c2onc(C)c2-c2ccc3c(c2)OCCO3)c(O)c1	-9%	-1	1.1	?	2	7%	·
COc1ccc(Nc2ccc(C(F)(F)F)cc2[N+](=O)[O-])cn1	-5%	22	·	30%	13	2%	1.9%
O=C(CC1COc2ccccc2O1)NC1CCCCC1 (configuration not stated)	-5%	-12	2.2	22%	13	14%	0.1%
Cc1ccc(C(=O)N(C)Cc2ccccc2)cc1S(=O)(=O)N1CCOCC1	-8%	-12	·	-69%[inhibitor]	5	15%	0.4%
CC(=O)c1sc(NC(=O)CSC(C)C(=O)Nc2cc(C)on2)nc1-c1ccccc1 (configuration not stated)	11%	8	·	3%[15.4 µM]	12	·	0.9%
CC(C)Cc1cc(C(=O)NCc2cccnc2)no1	-1%	?	3.3	-25%	18	5%	-0.6%
CC(NC(=O)C1CCCN1S(=O)(=O)c1ccccc1)c1ccccc1 (configuration not stated)	-1%	-5	-4.7	-13%[15.4 µM]	-3	5%	2.2%
O=C(COC(=O)c1ccccc1SCC(=O)N1CCCC1)Nc1ccccc1	0%	7	·	28%	-6	8%	-6.8%
CN(CC(=O)Nc1ccccc1Cl)C(=O)COc1cccc2c1OC(C)(C)C2	6%	-11	·	-5%[15.4 µM]	-3	·	·
O=C(O)C(c1ccccc1)N1C(=O)c2ccccc2C1=O (configuration not stated)	6%	6	-0.6	-41%[inhibitor]	·	17%	-2.4%
Cc1scc(C(=O)O)c1-c1c(C(=O)O)csc1C	13%	0	3.0	-1%	-13	13%	0.6%
CCCOc1ccc(-c2nc(-c3ccc(N)cc3)cs2)cc1	·	9	?	·	·	?	·
CSCC(=O)N1CCCC(N2CCN(c3cccc(C(F)(F)F)c3)CC2)C1 (configuration not stated)	3%	-5	0.6	-7%	·	22%	1.1%
C=CCn1c(=N)n(CC(=O)c2ccc(OC)cc2)c2ccccc21	10%	27	58[activator]	3%[15.4 µM]	-3	6%	·
CN(C1CCCCC1)S(=O)(=O)c1ccc2c(c1)c(=O)c(C(=O)N1CCc3ccccc3C1)cn2C	-12%	18	2.6	-7%	10	14%	2.7%
CN(Cc1nc2ccccc2c(=O)[nH]1)C(=O)c1ccc(S(=O)(=O)N2CCCC2)cc1	-3%	-4	·	-8%	21	·	-1.3%
COc1ccccc1NC(=O)NC(N)=O	4%	-2	-3.0	5%	-4	12%	-0.6%
